Screening results as filed in PubChem BioAssay.
RecA intein inh – Mtb RecA intein splicing inhibitors, primary screen, biochemical, fluorescence, HTS. Protein RecA (Mycobacterium tuberculosis (strain ATCC 25618 / H37Rv)), P9WHJ3. AID 2221, 2009. 290,000 compounds, 0.75% hits. inhibition, %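 (about 9 µM by stock and volumes)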. cell-free RecA intein splicing; in the data active = inhibition above about 30%; inconclusive = no clear call, values can overlap the other calls;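 also: 0% = vehicle wells and 100% = reference inhibitor control wells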
Target sequence (P9WHJ3 whole entry, looked up): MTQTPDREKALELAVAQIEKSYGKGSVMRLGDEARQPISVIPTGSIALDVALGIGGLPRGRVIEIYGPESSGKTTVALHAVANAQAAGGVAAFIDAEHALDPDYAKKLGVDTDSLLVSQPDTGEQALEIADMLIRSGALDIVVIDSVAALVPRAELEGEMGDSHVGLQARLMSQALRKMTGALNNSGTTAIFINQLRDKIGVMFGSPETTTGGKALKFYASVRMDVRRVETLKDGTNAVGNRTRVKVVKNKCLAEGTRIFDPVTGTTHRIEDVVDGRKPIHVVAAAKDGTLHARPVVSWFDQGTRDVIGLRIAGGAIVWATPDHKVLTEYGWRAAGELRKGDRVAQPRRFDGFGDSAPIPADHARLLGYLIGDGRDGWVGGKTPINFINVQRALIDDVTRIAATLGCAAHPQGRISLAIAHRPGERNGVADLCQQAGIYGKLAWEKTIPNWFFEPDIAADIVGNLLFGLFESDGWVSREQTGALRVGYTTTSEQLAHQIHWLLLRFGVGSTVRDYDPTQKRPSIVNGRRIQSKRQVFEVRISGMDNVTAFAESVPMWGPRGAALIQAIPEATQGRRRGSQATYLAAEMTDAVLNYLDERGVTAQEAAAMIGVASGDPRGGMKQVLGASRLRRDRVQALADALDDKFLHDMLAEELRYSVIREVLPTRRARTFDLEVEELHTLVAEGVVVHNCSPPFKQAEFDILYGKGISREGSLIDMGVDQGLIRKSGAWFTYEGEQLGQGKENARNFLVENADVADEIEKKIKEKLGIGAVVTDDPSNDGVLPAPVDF
YopH inh – YopH tyrosine phosphatase inhibitors, primary screen, biochemical, fluorescence Ex485/Em525; 140,000 compounds, 0.16% hits; inhibition, %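 (about 10 µM by stock and volumes)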; YopH tyrosine phosphatase [Yersinia enterocolitica]; AID 898, 2007;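 active = inhibition of 50% or more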;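 also: controls were vehicle for no effect and minimum signal wells for full effect; inactives centre near -20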
Mtb H37Rv – M. tuberculosis H37Rv growth inhibitors, H37Rv strain (AID 1626). inhibition, % at 10 µM; hits with a dose series show IC50 in µM. 220,000 compounds, 0.95% hits. M. tuberculosis H37Rv growth inhibition; higher % means a stronger effect;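 active = confirmed in a dose series; inconclusive = inhibition above 80% but not taken into the dose series; inactive = below 80% or under 30% at every dose of the series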;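 also: bacteria incubated seven days before Alamar blue readout; 0% = bacteria only wells and 100% = bacteria with antibiotic wells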
Mtb bLac sens – beta-lactam sensitization of Mtb H37Rv, H37Rv; AID 434955, 2010; M. tuberculosis H37Rv growth with meropenem, percent inhibition; hits of this screen are not shown here; 330,000 compounds, 0.27% hits; inhibition, % at 25 µM;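 active = about 74% or more and at least 40 points above the plate without the antibiotic, then above 30% in a dose series; inconclusive = first-round hits that could not be retested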;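 also: growth measured after seven days incubation then overnight dye step; 0% = bacteria only wells and 100% = bacteria with antibiotic; twin plates without the antibiotic show which effects depend on it; some results filed as inactive read as strong as hits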
Arbovirus anti – antivirals against arbovirus infection, primary screen, cell-based, full library, 10K replicate subset. arbovirus infection cell-based antiviral screen. inhibition, % at 10 µM. 200,000 compounds, 0.37% hits. AID 1251, 2008;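 active = inhibition from about 30%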;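 also: bluetongue infection of BSR cells; cell survival read as ATP light after 72 h; 0% = infected wells without compound and 100% = uninfected wells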
Arbovirus anti repeat – also measured in Arbovirus anti; calls as there; inhibition, %; measured here: 10K subset replicate screen; many hits read low in the repeat;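 first of two repeat runs on a subset; 0% = infected and 100% = uninfected wells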
Numbers without * were called inactive; ? = inconclusive; . = no result given. Not all compounds are listed; count on the stated rates, not on these rows.

Preview, 7 compounds:
SMILES | RecA intein inh | YopH inh | Mtb H37Rv | Mtb bLac sens | Arbovirus anti | others
Cn1cc(S(=O)(=O)Cc2ccc(F)cc2)c2ccccc21 | -0.3 | . | . | 4 | .
Cc1cc(/C=C2\C(=N)N3N=C(c4ccco4)SC3=NC2=O)c(C)n1Cc1ccccc1 | -18 | . | -6% | 44 | .
C=CCn1c(O)c(N=NC(=O)c2cccnc2)c2cc(Br)ccc21 | -1.2 | . | 66% | 65 | .
Cc1ccnc(NC(=O)c2ccccc2[N+](=O)[O-])c1 | -2.5 | -13 | -7% | 4 | 1
O=C1CC(c2ccco2)Cc2nc(N3CCN(Cc4ccc5c(c4)OCO5)CC3)ncc21 (stereo not drawn) | 9.0 | -12 | -2% | -5 | 3
O=C(Cn1ncc2c1-c1ccccc1OC2)Nc1ccc(S(=O)(=O)N2CCCCC2)cc1 | . | -40 | 6% | -4 | -8 | Arbovirus anti repeat=-13
Cc1cccc(CS(=O)(=O)c2ncc(Cl)c(C(=O)Nc3nnc(C(C)C)s3)n2)c1 | 86* | . | . | 6 | .

Main list, previewed entries included:
SMILES | RecA intein inh | YopH inh | Mtb H37Rv | Mtb bLac sens | Arbovirus anti | others
Cn1cc(S(=O)(=O)Cc2ccc(F)cc2)c2ccccc21 | -0.3 | . | . | 4 | .
Cc1cc(/C=C2\C(=N)N3N=C(c4ccco4)SC3=NC2=O)c(C)n1Cc1ccccc1 | -18 | . | -6% | 44 | .
C=CCn1c(O)c(N=NC(=O)c2cccnc2)c2cc(Br)ccc21 | -1.2 | . | 66% | 65 | .
Cc1ccnc(NC(=O)c2ccccc2[N+](=O)[O-])c1 | -2.5 | -13 | -7% | 4 | 1
O=C1CC(c2ccco2)Cc2nc(N3CCN(Cc4ccc5c(c4)OCO5)CC3)ncc21 (stereo not drawn) | 9.0 | -12 | -2% | -5 | 3
O=C(Cn1ncc2c1-c1ccccc1OC2)Nc1ccc(S(=O)(=O)N2CCCCC2)cc1 | . | -40 | 6% | -4 | -8 | Arbovirus anti repeat=-13
Cc1cccc(CS(=O)(=O)c2ncc(Cl)c(C(=O)Nc3nnc(C(C)C)s3)n2)c1 | 86* | . | . | 6 | .
O=C(Cn1cnc2c(cnn2-c2ccc(F)cc2)c1=O)NCCc1ccccc1 | -0.7 | -2 | 3% | 8 | 13 | Arbovirus anti repeat=-2
CCS(=O)(=O)C(=C1NCCO1)S(=O)(=O)CC | 0.7 | -4 | -6% | -21 | 7
CN(C(=O)Cn1nnc(-c2ccccc2)n1)C1CCS(=O)(=O)C1 (stereo not drawn) | -2.7 | . | . | 1 | .
CC(C(=O)NC(=O)NCc1ccccc1)N1C(=O)c2ccccc2C1=O (stereo not drawn) | . | 1 | 4% | 13 | 4
OC(CN1CCN(C(c2ccccc2)c2ccccc2)CC1)c1ccc(Br)cc1 (stereo not drawn) | 5.8 | . | . | 2 | .
CC#CCN1c2ccccc2[C@]23C[C@@H](C(=O)OC)N(C(=O)c4ccco4)C2=NC(C(=O)OC)=C(C(=O)OC)[C@H]13 | -1.2 | . | -5% | 2 | .
COc1ccc(NC(=O)c2ccc(NC3CC(=O)N(c4ccc(C)cc4C)C3=O)cc2)cc1 (stereo not drawn) | -0.2 | . | -3% | -3 | .
C=CCn1c(=S)[nH]c2scc(-c3ccc(C)o3)c2c1=O | -1.1 | . | 16% | -7 | 30
C=CCOn1c(C)c(C(C)=O)c2c3nonc3ccc21 | 1.3 | 43 | -2% | -10 | 12
COc1ccc(S(=O)(=O)N2CCN(C)CC2)cc1C | 0.0 | -14 | -5% | -2 | 0 | Arbovirus anti repeat=2
Cc1ccc(CN(C(=O)COc2ccc(Br)cc2)C2CCS(=O)(=O)C2)o1 (stereo not drawn) | -0.4 | . | . | 1 | .
CCN1C(=O)c2cccc3c(NC(=O)c4ccc(S(=O)(=O)N(C)C)cc4)ccc1c23 | -4.0 | -9 | 4% | -5 | -19 | Arbovirus anti repeat=-11
CCOc1ccc2nc(N(CCN(C)C)C(=O)/C=C/c3cccs3)sc2c1 | 2.7 | . | . | ? | .
Cc1ccc(NC(=O)c2cc(S(=O)(=O)N3CCCCC3)ccc2N2CCOCC2)cc1F | -0.2 | -9 | -3% | 5 | 11
Cc1ncc(S(=O)(=O)c2ccccc2)c(-c2ccccc2)n1 | -1.8 | -3 | -12% | 11 | -2
Cc1nc2ccccn2c1/C(O)=C1\C(=O)C(=O)N(CCN(C)C)C1c1cccnc1 (stereo not drawn) | 0.8 | -24 | -11% | -13 | 1
C#CCOCCOCCOCCNc1nc(N2CCN(C(=O)C([C@@H](C)CC)n3cc(C(N)COC(=O)C(F)(F)F)nn3)CC2)nc(N2CCN(C(=O)[C@H](CCCCN)n3cc(C(N)[C@H](C)CC)nn3)CC2)n1 (stereo partly drawn) | 0.2 | . | 3% | 3 | .
O=C(Nc1nnc(C2CC2)s1)C1CCCCN1S(=O)(=O)c1ccccc1 (stereo not drawn) | 0.0 | . | 9% | 10 | 4
CCCCN(CCCC)Cc1ccc(C(=O)NNC(=O)Nc2ccc(Cl)cc2)o1 | 2.7 | . | -2% | -9 | -15
C=CCn1c(NCc2c[nH]c3ccccc23)nc2ccccc21 | . | -28 | -9% | -4 | 11
Cc1csc(NC(=O)c2cc3c(C)nn(Cc4ccccc4Cl)c3s2)n1 | -2.1 | -26 | 48% | 10 | -27
COc1ccccc1C1=NC(c2ccc(F)cc2)N=C1C (stereo not drawn) | 3.5 | . | 10% | 2 | -3
CCOC(=O)/C(N=O)=C(\O)C1CCN(C(=O)OCC)CC1 | -2.0 | -5 | 1% | 1 | 11
CN1CCN(c2nc3c(c(=O)[nH]c(=O)n3C)n2Cc2ccccc2)CC1 | -5.2 | . | . | 1 | .
COc1ccccc1C(=O)Oc1cc(N)n(S(=O)(=O)c2ccccc2)n1 | 4.7 | . | 0% | 5 | -2
CCOc1ccc(CN(C(=O)c2oc3cc(C)ccc3c2C)C2CCS(=O)(=O)C2)cc1 (stereo not drawn) | 8.7 | -22 | -6% | 8 | -20
C/C(=N\NC(=O)c1nnn(-c2nonc2N)c1CN(C)c1ccccc1)c1ccccc1O | -0.5 | . | . | 7 | .
CCOC(=O)c1[nH]c(C)c(C(=O)NCc2ccc(Cl)cc2)c1C | 2.1 | -21 | 9% | 6 | -13
CC(C)(C)OC(=O)N1CCC(c2c(C(=O)N3CCN(C4CCCCC4)CC3)cnn2-c2ccccc2)CC1 | -1.5 | . | . | 0 | .
Nc1c(C(O)(C(F)(F)F)C(F)(F)F)cc(C(O)(C(F)(F)F)C(F)(F)F)c2ccccc12 | 8.8 | -128 | 12% | 2 | -22
CSc1ncccc1C(=O)Nc1nc2ccc(S(C)(=O)=O)cc2s1 | 1.1 | . | -9% | 8 | 1
CC(=O)c1ccc(-n2ccnc2)cc1 | -1.2 | . | -12% | -5 | .
COc1ccc(NC(=O)CC23CC4CC(CC(Br)(C4)C2)C3)c(OC)c1 | 2.7 | . | . | 2 | .
O=C(CC1Nc2cccc3cccc(c23)NC1=O)Nc1ccc(F)cc1 (stereo not drawn) | -1.4 | . | 6% | -3 | 16
Cc1ccc2c(c1)c1c3n2CCN(C(=O)CCl)C3CCC1 (stereo not drawn) | 73* | . | . | 100 | .
CC(=O)Oc1cc(OC(C)=O)c2c(=O)c(-c3ccc4c(c3)OCCCO4)c(C)oc2c1 | 5.5 | . | 1% | -13 | .
Clc1ccc(-c2nnsc2SCc2ccccc2)cc1 | 24 | -32 | 68% | 17 | 5
COc1cc(S(=O)(=O)N2CCOCC2)ccc1N | 2.0 | . | 0% | 0 | 1
COc1ccccc1-c1nnc(SCC(=O)Nc2ccc(N3CCOCC3)cc2)n1C | -2.2 | . | . | -10 | .
Nc1nonc1-n1nnc(C(=O)N/N=C/c2ccc(OCc3ccccc3F)cc2)c1CN1CCCCC1 | 2.3 | . | . | 24 | .
COc1ccc(NC(=O)NC(c2ccccc2)c2ccccc2)c(OC)c1 | -0.3 | . | . | -4 | .
O=C(O)C1C2C=CC(C3CC23)C1C(=O)O (stereo not drawn) | -0.9 | -49 | -2% | -4 | -2
O=C(c1cccc(C(F)(F)F)c1)C1CCCN(Cc2cccc(OCCO)c2)C1 (stereo not drawn) | 0.3 | . | 12% | -15 | 0
CC1CCN(S(=O)(=O)c2cnc[nH]2)CC1 | 0.3 | . | . | -1 | .
O=C(NC(=S)NCc1ccccc1)C1CC1 | 1.9 | . | -2% | 5 | -5
O=C(Nc1ccccc1N1CCOCC1)c1ccc(OCc2cscn2)cc1 | 0.6 | . | . | 2 | .
Cc1ccc(NC(=O)c2ccnc(C(C)(C)C)c2)cc1 | 0.9 | 68* | -11% | 3 | 7
CCOC(=O)c1csc(NC(=O)CN2CCOCC2)n1 | 0.7 | . | . | 1 | .
CCCN(C(=O)CSc1nnnn1C)C1CCS(=O)(=O)C1 (stereo not drawn) | 1.8 | . | -3% | 2 | -3
COc1ccccc1Cn1c(=S)[nH]c2cc(C(=O)N3CCC(C(N)=O)CC3)ccc2c1=O | -2.3 | . | . | -4 | .
Cc1cc(C)n2nc(SCc3ccc(C#N)cc3)nc2n1 | -2.3 | . | . | -6 | .
CS(=O)(=O)N1CCCC(C(=O)Nc2ccc(F)cc2F)C1 (stereo not drawn) | 3.5 | . | -1% | -2 | 0
CCNc1nc(NCC)n2c(SCC(=O)Nc3ccccc3F)nnc2n1 | -0.5 | . | . | -9 | .

Continued.
SMILES | RecA intein inh | YopH inh | Mtb H37Rv | Mtb bLac sens | Arbovirus anti | others
CCC(=O)c1ccc(OCC(=O)OCC(=O)NCc2cccs2)cc1 | 0.2 | . | . | -8 | .
O=C(Nc1ccc(N2CCCCC2)cc1)c1cncc(Br)c1 | -1.9 | -44 | 0% | -2 | 12 | Arbovirus anti repeat=11
CCCC(=O)N(CCN1CCOCC1)c1nc2c(C)cccc2s1 | -0.4 | . | . | ? | .
Cc1nn(CC(=O)N/N=C/c2ccc3c(c2)OCO3)c(C)c1Br | -1.9 | -24 | 4% | 4 | 1
CCCCNC(=S)N/N=C/c1cccc(OCC)c1O | 0.6 | . | ? | 96 | .
CC(C)c1nnc(NC(=O)CCS(=O)(=O)Cc2ccccc2)s1 | -0.9 | . | . | -1 | .
c1ccc(Nc2nc3ccccc3o2)cc1 | -4.4 | -13 | 0% | 0 | 0
CCCCOC(=O)Nc1cc(C)c(Cl)cc1OC | 2.8 | -8 | -8% | -2 | -6
CCCC(=O)Nc1cc(C(F)(F)F)ccc1N1CCOCC1 | 0.2 | . | -3% | -14 | 3
O=C1/C(=C/c2cccc3ccccc23)CCCc2ccccc21 | 15 | 31 | . | 7 | 4
Fc1ccc(N2CCN(C3=Nc4cccc5cccc3c45)CC2)cc1 | -2.4 | . | 61% | 88 | -26
COc1cc(N)c(Br)cc1C(=O)O | -3.8 | . | -1% | -1 | 2
O=C1CC(CCC(=O)NC2CC2)c2ccccc2N1 (stereo not drawn) | 0.6 | -11 | -1% | -4 | 0
Cc1cccc(C)c1NC(=O)N1CC=C(n2c(=O)[nH]c3ccccc32)CC1 | 0.4 | -41 | -14% | 1 | 9
CN(C)C1=NC(=O)/C(=C\c2ccccc2)S1 | 0.4 | . | -1% | 41 | 3
CN(C(=O)CSc1nnc(NCc2ccccc2)s1)C1CCS(=O)(=O)C1 (stereo not drawn) | -3.0 | . | -5% | -11 | 1
CCCCn1c(N)c(N(CCC(C)C)C(=O)C2CCCN(C(=O)c3ccc(Cl)cc3)C2)c(=O)[nH]c1=O (stereo not drawn) | 0.5 | . | . | 3 | .
Cc1ccccc1OCc1nnc(SCC(=O)NCc2ccccc2)n1C | -0.8 | -11 | 3% | -6 | -11
CCOC(=O)c1cccc(NC(=O)c2c(O)[nH]c(=O)[nH]c2=O)c1 | -1.0 | . | -4% | 70 | .
COc1ccc2cc(C(N)=O)c(=Nc3ccccc3)oc2c1 | -2.2 | . | 5% | -3 | -4
O=c1[nH]c(CN(CCc2ccccc2)S(=O)(=O)c2ccc(Cl)cc2)nc2ccccc12 | -2.6 | -32 | 10% | -3 | 11
O=C(CNC(=O)c1ccco1)OCc1ccc(Br)cc1 | 1.0 | . | . | -7 | .
COc1ccc(CCNc2oc(-c3ccco3)nc2C#N)cc1 | 0.7 | -36 | ? | 30 | 4
O=C(C1CC1)N1CCC(Oc2cccc(C(=O)N3CCCCC3CCO)c2)CC1 (stereo not drawn) | 0.2 | . | . | 2 | .
